Calb FLC: affects C. albicans growth with fluconazole; C. albicans CaCi-2 (fluconazole-resistant clinical isolate) + fluconazole, Alamar Blue growth, 48 h; growth inhibition, % (test concentration not listed); 300,000 tested, 0.57% active; AID 1979;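 active means most replicates above 75%; inconclusive means exactly half above 75%; inactive means most below 75%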;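 further: all wells also contain fluconazole at 8 µg/ml as a sub-toxic cotreatment; 0% = median of DMSO wells and 100% = median of geldanamycin control wells; wells of about 8 µL received 7.5 nL stock; the first replicate is given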
LANA-H2B inh: blocks KSHV LANA binding to histone H2A/H2B; Q9QR71; cell-free LANA-H2A/H2B peptide, fluorescence polarization; inhibition, % (test concentration not listed); 320,000 tested, 0.6% active; AID 2629; in the data active means inhibition mostly above about 10%, no sharp cut-off; inactive means mostly below about 6.7%;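 further: stock transfer was 7.5 nL into about 10 µL; 0% = median of vehicle wells and 100% = median of positive control wells; one replicate is shown; the record names a cut of 25% in any replicate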
RanGTP-Imp inh: disruptors of Ran-importin-beta complex formation – biochemical, FRET, CFP-Ran, YFP-importin-beta, homogeneous, primary screen | AID 2216 | inhibition, % (no concentration beside the values) | cell-free CFP-Ran/YFP-importin-beta FRET ratio | 300,000 tested, 1.1% active;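 active means most replicates above 15%; inconclusive means exactly half above 15%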;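 further: 0% = DMSO wells and 100% = Ran loaded with GDP instead of GTP; wells of about 40 µL received 100 nL stock; the first replicate is given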
MLL AF4-AF9 inh: MLL-AF4/AF9 protein interaction inhibition; AlphaScreen, biotin-AF4 peptide binding to FLAG-AF9; 350,000 tested, 0.47% active; P42568; AID 651704; inhibition, % at 10 µM;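 active means every replicate reaching a set inhibition limit, whatever the replicate mean, cut at about 25% in these data; inconclusive means mean inhibition reaches that limit but some replicates miss it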;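 further: 0% = plate neutral control median and 100% = total signal loss; the record names both 10 and 1 µM as test concentration; the first replicate is given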
Target sequence (P42568 whole entry, looked up): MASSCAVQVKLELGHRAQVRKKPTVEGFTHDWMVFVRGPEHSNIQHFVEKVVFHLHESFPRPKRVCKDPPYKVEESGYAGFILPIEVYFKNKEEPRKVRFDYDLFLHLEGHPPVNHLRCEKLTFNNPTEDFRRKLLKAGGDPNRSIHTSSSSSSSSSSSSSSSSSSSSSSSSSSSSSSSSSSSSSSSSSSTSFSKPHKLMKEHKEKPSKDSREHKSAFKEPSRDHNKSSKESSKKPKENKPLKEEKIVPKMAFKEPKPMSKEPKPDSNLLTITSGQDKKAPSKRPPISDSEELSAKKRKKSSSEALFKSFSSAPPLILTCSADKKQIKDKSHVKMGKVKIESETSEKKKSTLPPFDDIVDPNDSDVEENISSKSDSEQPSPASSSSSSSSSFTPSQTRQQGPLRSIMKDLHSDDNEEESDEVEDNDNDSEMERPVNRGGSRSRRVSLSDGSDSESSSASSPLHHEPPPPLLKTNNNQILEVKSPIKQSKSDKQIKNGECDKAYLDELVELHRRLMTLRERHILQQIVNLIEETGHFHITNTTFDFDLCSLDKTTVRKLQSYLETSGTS
Beta apoptosis: beta cell apoptosis inhibition; INS-1E cytokine-induced death, ATP luminescence, 48 h; percent of positive-control rescue, neutral wells zero; protection from apoptosis, % (test concentration not listed); 300,000 tested, 0.8% active; AID 435005;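 active means all replicates at 75% or more, or half of them and the mean; inconclusive means half reach 75% but not the mean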;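 further: 0% = cytokine-treated negative control wells and 100% = positive control rescue; higher means more ATP so stronger rescue from cytokine killing; wells of about 40 µL received 100 nL stock; the first replicate is given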
Vif TR-FRET: HIV-1 Vif–A3G interaction blockers – biochemical, TR-FRET, GST-Vif 1-94, biotin-A3G peptide, dose response retest, primary screen (AID 1117319); TR-FRET GST-Vif / biotin-A3G peptide binding; higher % means a stronger effect; test concentration not given here; strong numbers were not always called active; one-dose inhibition, %; IC50 in µM for titrated hits; 260,000 tested, 0.57% active;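 active means above the screen mean plus three standard deviations and confirmed in dose response; inconclusive means results disagree or hit not tested in dose response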;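 further: Vif residues 1-94 fused to GST binding biotinylated APOBEC3G peptide 110-148; 0% = full assay without inhibitor and 100% = GST in place of GST-Vif; retest series ran down from 100 µM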
Bfl-1 A1 inh: inhibitors of the anti-apoptotic protein A1, read as caspase activation; caspase activation, % (test concentration not listed); AID 2462; MEF A1-2A-BIM cells, Caspase-Glo 3/7 luminescence, 3 h; percent of clofoctol response, vehicle zero; 330,000 tested, 0.066% active;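 active means over half of replicate activation scores above 10%, or exactly half above 10 with the replicate mean above 10; inconclusive means replicate mean below 10 yet half the replicates above 10; inactive means over half of replicates below 10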;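 further: wells of about 30 µL received 50 nL stock; many hits fall short of the cut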
T cruzi inh: blocks replication of Trypanosoma cruzi; T. cruzi beta-gal in NIH3T3, luminescence, 90 h; inhibition, % (no concentration beside the values); 300,000 tested, 1.4% active;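 active means mean inhibition across valid replicates above about 55%, limit read from the data; inconclusive means mean below that limit but half or more replicates reach it; inactive means mean below it, under half of replicates reach it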;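 further: signal also drops with host cell toxicity which is not excluded here; 0% = plate median of DMSO wells and 100% = zero luminescence signal; higher percent means less beta-gal luminescence so fewer parasites; stock transfer was 50 nL into about 50 µL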
The depositor's hits bear a star; ? = inconclusive; nt = no result given; & = joins results of further samples. An unsorted share of the library (roughly 4.3% active in at least one column).

SMILES	Calb FLC	LANA-H2B inh	RanGTP-Imp inh	MLL AF4-AF9 inh	Beta apoptosis	Vif TR-FRET	Bfl-1 A1 inh	T cruzi inh
Cn1c(CNC(=O)c2ccco2)nnc1SCC(=O)Nc1cccc(Br)c1	-11	8.6	0.5	nt	-7	-6%	nt	-9
CN(C)C(=O)CSc1ncccc1-c1nc2ccccc2[nH]1	0	-5.5	-5.9	0.1	-3	4%	-0.8	-1
COc1ccc(C2=NN(C(=O)CN3CCOCC3)C(c3nc4ccccc4[nH]3)C2)cc1 (stereo not drawn)	17	-2.2	3.3	0.6	nt	nt	1.1	9
CCc1ccc(NC(=O)c2ccc(S(=O)(=O)NCc3cccnc3)cc2)cc1	-16	1.9	4.9	-0.2	10	-2%	1.2	-1
NC(=O)c1ccc(NC(=O)COC(=O)c2ccc3c(c2)OCO3)cc1	nt	2.9	nt	12	-6	-1%	-0.3	nt
CC(=O)c1ccc(NC(=S)NCCc2ccccn2)cc1	-13	1.4	3.6	0.3	-5	-2%	-0.1	-15
CCOc1ccccc1CNC(=O)C1CCN(c2nn3c(=O)cc(C)nc3s2)CC1	-30	8.5	3.4	-3.9	-3	5%	0.7	2
CC(Nc1cccc2ccccc12)C(=O)N/N=C/c1ccc([N+](=O)[O-])cc1 (stereo not drawn)	0	-1.3	-3.3	nt	2	3%	0.4	15
COc1cc(NC(=O)CC2NCCNC2=O)cc(OC)c1 (stereo not drawn)	-6	-3.9	-4.1	nt	-1	2%	0.4	-5
C=CCOc1ccc(CNc2ccc3[nH]c(=O)[nH]c3c2)cc1OCC	35	-2.9	1.8	4.8	-4	nt	0.0	4
O=Cc1ccc(C(=O)OCC(=O)NCc2ccco2)cc1	nt	0.0	nt	-0.3	6	1%	-0.9	nt
O=C(COC(=O)c1cc([N+](=O)[O-])ccc1N1CCOCC1)Nc1ccc(Cl)cn1	6	2.2	3.5	4.0	38	nt	0.6	-33
Cc1ccccc1NS(=O)(=O)c1cccc(C(=O)Nc2cccc(C(=O)O)c2)c1	2	0.7	-5.0	2.7	-3	nt	-2.8	-9
O[C@@H]1CN(C2CCCCC2)CC[C@H]1N1CCN(CCc2ccccc2)CC1	-2	-5.3	?	nt	nt	nt	1.2	4
O=C(NCc1ccc2c(c1)OCO2)c1ccc2c(c1)OCO2	-13	-1.5	0.0	-7.9	0	nt	-0.6	-12
Cc1ccc(C)c(S(=O)(=O)N2CCN(C(=O)CCNS(=O)(=O)c3ccccc3)CC2)c1	2	6.2	1.4	1.1	2	nt	0.1	14
Clc1cccc(N=NN2CCOCC2)c1Cl	-5	7.8	3.2	nt	-4	-9%	-0.6	-7
Cc1ccc(Nc2nnc(SCn3nnc4ccccc4c3=O)s2)cc1	0	2.3	-1.9	nt	1	-7%	0.4	27
Cc1ccccc1CSc1nnc2ccc(-c3ccncc3)nn12	3	0.9	-6.6	1.2	4	nt	-0.2	1
Cc1ccc(/C=C/C(=O)Nc2ccc(S(=O)(=O)Nc3cc(C)nc(C)n3)cc2)cc1	-4	5.3	-1.4	3.9	5	nt	0.5	-3
O=C(O)c1cc(S(=O)(=O)NCCCN2CCCC2=O)ccc1Cl	nt	3.6	nt	-0.5	-16	-1%	-0.6	nt
COc1cc(C=O)ccc1Oc1cnccn1	-19	3.5	1.7	-0.1	-8	1%	0.5	-18
Cc1ccc(C)c(NS(=O)(=O)c2cc(C(=O)N3CCc4ccccc4C3)ccc2Cl)c1	-11	2.5	-1.1	-12	1	-2%	1.1	56*
COc1ccc(C(C)=O)cc1COC(=O)c1cnc(Cl)c(Cl)c1	-2	1.1	-3.3	-1.9	10	1%	-0.5	-9
Cc1c(C(=O)OCC(=O)NCC2CCCO2)oc2ccccc12 (stereo not drawn)	nt	4.0	nt	-3.5	-1	-1%	-0.4	nt
CCn1c(SCC(=O)NC2CC2)nnc1-c1ccncc1	nt	-2.1	nt	-9.0	-4	-3%	1.2	0
CCOP(=O)(OCC)C(NC(=O)Nc1ccc(Cl)cc1)C(=O)N(CC)CC (stereo not drawn)	-8	0.8	0.4	-0.8	-16	nt	0.0	-7
Cc1ccc(C)c(CN2C(=O)CSc3ccc(C(=O)NCCN4CCOCC4)cc32)c1	-25	-2.5	2.5	-50	6	nt	-0.3	4
O=C(Nc1ccc(NC(=O)c2ccccc2F)cc1)c1ccccc1F	-1	-1.0	-2.8	-2.4	nt	0%	-2.9	1
CC12CCC(=O)N1C(C(=O)NNC(=O)c1ccc(F)cc1)CS2 (stereo not drawn)	4	2.8	6.1	-16	-5	12%	1.1	-9
Cc1cc2c(c(SCC#N)n1)C(=O)OC2	0	-4.2	2.7	-1.0	0	nt	0.6	-6
CC(Cc1cccs1)NC(=O)Nc1ccc(F)cc1 (stereo not drawn)	-16	0.6	0.5	nt	-10	7%	0.8	0
Nc1cc(S(=O)(=O)N2CCCCC2)ccc1N1CCOCC1	-4	-5.6	?	-15	-12	2%	0.6	-15
COc1ccccc1-n1cnnc1SCC(=O)NC1CCCCC1	nt	1.6	nt	-1.6	-6	nt	0.9	nt
Cn1cnnc1SCC(=O)c1ccc(O)c(O)c1	4	-2.5	-1.0	-4.1	1	13%	-0.1	-1
COc1ccc(CN2CCC(Oc3ccc(C(=O)NCc4ccccn4)cc3)CC2)c(F)c1	0	2.3	7.0	0.2	-2	-1%	-0.6	15
Cc1cccc(NC(=O)N2C3CCCC2CC(NC(=O)C(C)(C)C)C3)c1 (stereo not drawn)	-7	-6.0	1.7	-0.3	1	nt	0.6	-18
CCOC(=O)c1c(NC(=O)COC(=O)c2ccc(O)cc2)sc(C(=O)N(C)C)c1C	10	-3.6	5.3	-9.3	-4	?	0.7	-18
COc1cc2sc(-c3ccc(S(C)(=O)=O)cc3)c(C#CCO)c2cc1OC	nt	7.2	nt	-17	0	nt	-0.7	nt
Cc1c(NC(=O)c2cccc(NC(=O)Cc3ccc(F)cc3)c2)c(=O)n(-c2ccccc2)n1C	nt	3.1	nt	0.7	0	-5%	-1.1	nt
O=C(O)c1cccnc1Sc1ccccc1	-2	2.4	?	nt	-9	-6%	-0.5	-26
COc1ccc(CNC(=O)C(OC(=O)c2cccs2)C(C)C)cc1 (stereo not drawn)	0	1.4	3.2	-4.0	3	nt	-0.4	-8
Cc1ccc(C(C[N+](=O)[O-])Sc2ccc(N)cc2)cc1 (stereo not drawn)	14	-0.3	1.5	-0.5	19	72%	1.3	0
CC(=O)Nc1cccc(C(=O)N2CCN(S(=O)(=O)c3ccc4ccccc4c3)CC2)c1	-1	2.4	-1.4	0.3	-1	0%	0.3	5
O=C(CSc1ccc(Cl)cc1)N1CCCC1	5	1.3	4.7	-2.3	-7	-6%	-0.3	-31
CC(C)=NNc1nc2c(c(=O)n(C)c(=O)n2C)n1C	-9	3.8	-1.7	3.9	-9	nt	0.1	1
CCc1noc(C)c1C(=O)OC(C)C(=O)Nc1cc([N+](=O)[O-])ccc1OC (stereo not drawn)	-6	-3.9	-1.9	0.1	3	-6%	0.4	5
CC(=O)c1ccc(OCC(=O)c2ccc(-c3ccccc3)cc2)cc1	12	1.1	-2.9	nt	0	-2%	-0.1	-11
COc1ccc2noc3c2c1C(=O)c1ccccc1-3	19	167*	-160	12	30	nt	-1.6	-1
COC(=O)c1cc(OC)c(OC)c(OC)c1[N+](=O)[O-]	-26	-4.3	-1.9	0.6	-6	-1%	0.5	2
O=C(O)COc1ccc(/C=N/NC(=O)c2ccc(-c3csc(Nc4ccc(Cl)cc4)n3)cc2)cc1	5	nt	1.8	0.3	nt	-10%	nt	-20
O=C(NNC(=O)C1CCN(c2ncccn2)CC1)c1ccc(F)cc1	-3	-1.3	2.4	-4.0	2	nt	0.2	4
Cc1ccccc1C(=O)NCC(=O)NNC(=O)c1cccc(Cl)c1	nt	-4.5	nt	-1.2	-6	nt	0.0	nt
COc1cc(OC)c(-c2noc(C(=O)OC(C)(C)C)c2C(=O)OC(C)(C)C)c(OC)c1	6	-2.6	1.6	nt	-2	-1%	-0.6	9
COc1ccc([N+](=O)[O-])cc1NC(=S)NC(=O)C(C)(C)C	-5	-6.9	-5.9	9.7	-2	-5%	-0.6	5
COc1nc(-c2ccccc2)cc(-c2ccc3c(c2)OCO3)c1C#N	23	4.9	-0.6	0.7	9	-39%	0.3	-12
Cc1cccc(N2CCN(S(=O)(=O)c3cn(C)cn3)CC2)c1C	-6	-4.1	-4.8	-1.0	-3	nt	2.6	4
CCOC(=O)c1c(NC(=O)COC(=O)Cn2c(C(F)(F)F)nc3ccccc32)sc(C)c1C	-1	4.7	-0.5	nt	0	-4%&-4%	1.1	-2
CCOC(=O)c1c(C)nc2sc(C(N)=O)c(N)c2c1-c1ccccc1	2	-6.4	6.1	nt	-9	-11%	-0.5	1
COc1cccc(-n2c(SC3CCOC3=O)nc3ccccc3c2=O)c1 (stereo not drawn)	-6	-1.6	-2.4	nt	2	25%	0.3	-5

The list goes on:
SMILES	Calb FLC	LANA-H2B inh	RanGTP-Imp inh	MLL AF4-AF9 inh	Beta apoptosis	Vif TR-FRET	Bfl-1 A1 inh	T cruzi inh
CC(=O)Nc1ccc(S(=O)(=O)NC(CC(=O)N(C)Cc2ccccc2)C(C)C)cc1 (stereo not drawn)	-6	-5.3	-0.7	nt	6	?	0.1	-7
COc1ccc(C(CNC(=O)COc2ccc([N+](=O)[O-])cc2)N2CCCCC2)cc1 (stereo not drawn)	-2	nt	-2.5	-0.2	nt	1%	nt	15
CCOc1ccc(NCc2ccccc2OCc2cccc(F)c2)cc1	-29	1.3	5.5	3.9	20	30%	-0.1	55*
COC(=O)c1ccc(NC(=O)N(c2ccccc2)c2ccccc2)cc1	-4	6.1	5.5	-6.7	0	-2%	-0.5	3
O=C(Nc1ccc(S(=O)(=O)Nc2nccs2)cc1)C(F)(F)F	-4	2.2	4.8	-6.1	1	nt	0.4	-8
O=C(NCc1cccc2ccccc12)c1cccs1	nt	0.6	nt	-0.9	2	nt	-1.7	nt
Cc1ccc(NC(=O)Cn2nnc3ccccc3c2=O)cc1C	-6	-9.8	-2.4	-3.3	-8	nt	-2.6	-3
CC(=O)N1CCCN(Cc2cn(-c3ccc(C)cc3)nc2-c2cccc(C)c2)CC1	2	2.0	4.7	-3.3	-3	nt	-0.3	20
COc1ccsc1C(=O)Nc1ccc(F)cc1F	1	4.8	-1.6	-2.9	0	4%	1.4	-13
S=c1[nH]nc(-c2ccco2)n1-c1ccccc1Cl	-14	6.6	-1.5	-2.1	-7	-2%	-0.3	-18
CN1CCN(Cc2nc3c(c(=O)n(C)c(=O)n3C)n2Cc2cccc3ccccc23)CC1	-7	nt	-2.7	nt	nt	6%	nt	35
Cc1ccccc1N(CC(=O)NC1CCCCC1)C(=O)CNC(=O)c1cccs1	-8	-4.1	1.8	-0.2	3	nt	0.1	-7
O=C1CCCC/C1=C/NCc1ccccc1	1	2.1	3.5	nt	2	-6%	-1.4	-17
COC(=O)c1ccc(OC)c(CSc2nnc(COc3ccccc3)o2)c1	17	-3.8	4.1	nt	1	11%	-0.1	1
CCOc1ncccc1C(=O)OCCN1C(=O)c2ccccc2C1=O	-1	1.5	0.2	nt	-9	-7%	0.8	-1
CC(C)(C)C1CCC(C(=O)OCC(=O)c2ccc[nH]2)CC1 (stereo not drawn)	-2	3.8	1.0	nt	1	12%	0.6	4

Screens deposited in PubChem BioAssay by several laboratories.
